# Assay outcomes (PubChem BioAssay)
# Beta cell apopt: inhibitors of cytokine-induced beta cell apoptosis, primary screen, luminescence. AID 435005, 2010. INS-1E cytokine-induced death, ATP luminescence, 48 h; percent of positive-control rescue, neutral wells zero. 300,000 compounds, 0.8% hits. protection from apoptosis, % (no concentration beside the values);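 active = all replicates at 75% or more, or half of them and the mean; inconclusive = half reach 75% but not the mean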;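 also: 0% = cytokine-treated negative control wells and 100% = positive control rescue; higher means more ATP so stronger rescue from cytokine killing; wells of about 40 µL received 100 nL stock; the first replicate is given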
# Ecoli rRNA inh: reduced GFP signal of wild-type E. coli, primary screen, bacterial rRNA inhibitor project, GFP/RFP fluorescence, OD600, single point | 350,000 compounds, 1.6% hits | GFP signal change (wild-type ribosome), % (concentration not given with the values) | E. coli WT GFP vs humanized-ribosome RFP mutants, 24 h; hits give low values; DMSO median 0, no signal -100;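 active = significant combined selectivity score with lowered wild-type GFP, culture density cut under 30%, mutant RFP and density less affected; inactive = any of these conditions unmet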; also: one replicate is shown; some compounds called inactive have numbers as strong as hits
# FGF22 binding: binders of human FGF22 protein, primary screen, FGF22 synaptogenesis inhibitor project, biophysical, thermal shift, single point; Fibroblast growth factor 22 (Homo sapiens), Q9HCT0; recombinant FGF22 thermal shift, SYPRO orange fluorescence; percent of sucrose octasulfate shift, DMSO zero; calls only at 9.99 µM; 340,000 compounds, 1.5% hits;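 active = melting point raised past a set limit in the mean and every replicate; inconclusive = no clear call; three in four hits are not shown here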
# Target sequence (Q9HCT0 whole entry, looked up): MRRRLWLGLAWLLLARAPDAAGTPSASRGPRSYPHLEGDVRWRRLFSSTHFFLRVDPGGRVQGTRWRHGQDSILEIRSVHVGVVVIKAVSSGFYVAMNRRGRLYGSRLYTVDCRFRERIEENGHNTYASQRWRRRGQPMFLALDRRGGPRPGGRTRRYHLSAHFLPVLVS
# Calb FLC: C. albicans growth inhibition with fluconazole, primary screen, CaCi-2 strain, Alamar Blue fluorescence; C. albicans CaCi-2 (fluconazole-resistant clinical isolate) + fluconazole, 48 h; growth inhibition, % (test concentration not listed); 300,000 compounds, 0.57% hits; AID 1979, 2009;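 active = most replicates above 75%; inconclusive = exactly half above 75%; inactive = most below 75%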;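 also: all wells also contain fluconazole at 8 µg/ml as a sub-toxic cotreatment; 0% = median of DMSO wells and 100% = median of geldanamycin control wells; wells of about 8 µL received 7.5 nL stock; the first replicate is given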
# ALR inh: inhibitors of human ALR sulfhydryl oxidase, primary screen, biochemical, H2O2 detection, HRP-luminol luminescence, single point; inhibition, % (no concentration beside the values); FAD-linked sulfhydryl oxidase ALR (Homo sapiens), P55789; purified ALR, DTT oxidation; 290,000 compounds, 3.8% hits;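 active = mean and each replicate at 75% or more; inconclusive = only one of the two met; inactive = neither met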;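 also: stock transfer was 7.5 nL into about 7.5 µL; 0% = neutral wells and 100% = wells with inactivated enzyme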
# Target sequence (P55789 whole entry, looked up): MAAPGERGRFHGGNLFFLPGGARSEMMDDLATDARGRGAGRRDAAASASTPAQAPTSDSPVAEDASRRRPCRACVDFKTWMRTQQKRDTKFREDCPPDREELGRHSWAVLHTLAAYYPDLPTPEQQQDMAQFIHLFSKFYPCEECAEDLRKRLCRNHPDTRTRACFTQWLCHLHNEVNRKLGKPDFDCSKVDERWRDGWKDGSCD
# MLL AF4-AF9 inh: inhibitors of AF4 peptide binding to AF9, primary screen, biochemical, AlphaScreen, biotin-AF4 peptide, FLAG-AF9, single point. Protein AF-9 (Homo sapiens), P42568. inhibition, % at 10 µM. 350,000 compounds, 0.47% hits. AID 651704, 2012;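 active = every replicate reaching a set inhibition limit, whatever the replicate mean, cut at about 25% in these data; inconclusive = mean inhibition reaches that limit but some replicates miss it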;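 also: 0% = plate neutral control median and 100% = total signal loss; the record names both 10 and 1 µM as test concentration; the first replicate is given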
# Target sequence (P42568 whole entry, looked up): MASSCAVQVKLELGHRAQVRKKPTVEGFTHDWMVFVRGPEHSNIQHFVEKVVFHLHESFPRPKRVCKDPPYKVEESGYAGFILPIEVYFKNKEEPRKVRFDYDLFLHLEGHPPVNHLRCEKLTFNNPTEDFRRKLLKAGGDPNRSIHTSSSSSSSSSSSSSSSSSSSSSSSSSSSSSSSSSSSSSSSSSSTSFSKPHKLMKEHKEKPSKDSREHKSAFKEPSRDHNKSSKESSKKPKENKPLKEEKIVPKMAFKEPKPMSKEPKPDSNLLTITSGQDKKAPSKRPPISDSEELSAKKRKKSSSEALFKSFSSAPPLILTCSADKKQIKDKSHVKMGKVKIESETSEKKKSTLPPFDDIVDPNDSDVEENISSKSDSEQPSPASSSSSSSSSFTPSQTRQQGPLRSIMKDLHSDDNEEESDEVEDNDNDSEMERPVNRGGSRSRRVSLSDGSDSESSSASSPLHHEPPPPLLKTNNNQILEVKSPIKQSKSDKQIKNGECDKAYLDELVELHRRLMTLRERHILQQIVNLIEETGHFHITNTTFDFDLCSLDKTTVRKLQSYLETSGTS
# RanGTP-Impb inh: inhibitors of RanGTP-importin-beta interaction, primary screen, biochemical, FRET, CFP-Ran, YFP-importin-beta, homogeneous | AID 2216, 2009 | 300,000 compounds, 1.1% hits | Ran GTPase (GTP-bound) - importin-beta complex | cell-free CFP-Ran/YFP-importin-beta FRET ratio | inhibition, % (concentration not given with the values);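 active = most replicates above 15%; inconclusive = exactly half above 15%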;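 also: 0% = DMSO wells and 100% = Ran loaded with GDP instead of GTP; wells of about 40 µL received 100 nL stock; the first replicate is given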
# T cruzi inh: inhibitors of intracellular T. cruzi growth, primary screen, luminescence, NIH3T3 host cells; T. cruzi beta-gal in NIH3T3, 90 h; 300,000 compounds, 1.4% hits; inhibition, % (test concentration not listed);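 active = mean inhibition across valid replicates above about 55%, limit read from the data; inconclusive = mean below that limit but half or more replicates reach it; inactive = mean below it, under half of replicates reach it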;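 also: signal also drops with host cell toxicity which is not excluded here; 0% = plate median of DMSO wells and 100% = zero luminescence signal; higher percent means less beta-gal luminescence so fewer parasites; stock transfer was 50 nL into about 50 µL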
# Ecoli rRNA inh OD600: recorded beside Ecoli rRNA inh, whose call it bears; OD600 change, %; measured here: OD600 growth;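 optical density of the mix in the first replicate; 0 = DMSO median and -100 = no signal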
# Ecoli rRNA inh RFP: further read-out of Ecoli rRNA inh, marked with its call; RFP signal change, %; measured here: RFP humanized mutant strains;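 first replicate; 0 = DMSO median and -100 = no signal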
# Numbers without * were called inactive; i = inactive; ? = inconclusive; · = not tested or not shown; & = joins results of further samples. Not all compounds are listed; the hit share may differ from the screen's.
SMILES,Beta cell apopt,Ecoli rRNA inh,Ecoli rRNA inh OD600,Ecoli rRNA inh RFP,FGF22 binding,Calb FLC,ALR inh,MLL AF4-AF9 inh,RanGTP-Impb inh,T cruzi inh
C[C@H](NC(=O)[C@@H]1Cc2ccccc2CN1C(=O)OC(C)(C)C)C(=O)NC1CCCC1,-3,1,1,0.5,i,4,2,-1.1,-1.6,0
Cc1cccc(N2CCN(C(=O)CCC(=O)N3CC(C)Oc4ccccc43)CC2)c1C (stereo not given),14,-2,-55,-9.1,i,-8,4,-13,-1.3,28
C=CCN(c1ccccc1)S(=O)(=O)c1cccc(C(=O)Nc2ccncc2)c1,-2,-23,-58,5.7,i,3,·,3.1,-2.8,38
O=C1c2ccccc2C(=O)N1CCC#Cc1ccc2cc(CCO)oc(=O)c2c1,-9,-5,-6,0.1,i,·,-12,-3.9,·,·
S=C(NCCCN1CCOCC1)Nc1ccc(Cl)cc1,-3,·,·,·,i,-6,-2,3.2,-0.3,-10
CC1(C)C2CCC1(CS(=O)(=O)Nc1ccc(S(=O)(=O)NC3CCCCC3)cc1)C(=O)C2 (stereo not given),-4,·,·,·,·,7,·,·,-1.9,3
COc1ccc(OC)c(CNC(=O)CCC(=O)N2Cc3ccccc3Oc3ncccc32)c1,-7,-1,1,-2.2,i,-1,-2,-1.6,-3.7,5
O=C(Nc1ccc2c(c1)Cc1ccccc1-2)c1ccncc1,2,·,·,·,·,5,-3,·,-0.1,3
O=C(Oc1ccc([N+](=O)[O-])cc1)c1cccnc1,-4,10,12,-0.4,i,1,12,-1.4,3.1,-19
Cc1ccc(Cc2c(C)nc3nc(SCC(=O)NCCN4CCOCC4)nn3c2C)cc1,-1,·,·,·,·,?,10,·,-1.5,5
Cc1cc(C)cc(-n2nnnc2SCC(=O)Nc2nc(-c3ccc(Cl)cc3)cs2)c1,10,9,5,3.8,i,-7,-4,-15,1.8,-4
CCC(=O)Nc1nnc(SCC(=O)N2c3ccccc3CC2C)s1 (stereo not given),-1,·,·,·,·,-5,17,·,0.3,8
O=C(NC(=S)Nc1ccc(N2CCOCC2)c(Cl)c1)C(c1ccccc1)c1ccccc1,4,·,·,·,·,35,-1,·,6.1,30
Cc1cnc(C(=O)OCC(=O)N2CCN(S(=O)(=O)c3ccc(Cl)cc3)CC2)cn1,-7,1,4,1.3,i,11,·,1.2,-1.5,7
CCCC1S/C(=N/N=C/c2ccc(OC)cc2)N(Cc2ccc(OC)cc2)C1=O (stereo not given),0,·,·,·,·,-6,-1,·,-1.1,25
O=C(Nc1nnc(C2CC2)s1)c1ccncc1,-4,·,·,·,·,-9,5,·,-1.7,-19
O=[N+]([O-])c1ccc(OCc2cccc(COc3ccc([N+](=O)[O-])cc3)n2)cc1,1,·,·,·,·,5,1,·,5.0,-7
COc1ccc(C2=NOC(CNC(=O)c3ccccc3Br)C2)c(OC)c1 (stereo not given),-1,-1,0,-1.5,i,-4,-4,0.0,-6.6,0
O=C1NC(=Nc2ccccc2Cl)S/C1=C\c1cc([N+](=O)[O-])ccc1O,·,-46,-70,-7.6,i,0,46,-1.7,-98,-2
CCn1c(NC(=O)c2ccccc2F)c(-c2cccs2)c(=O)c2ccccc21,-4,13,3,1.2,i,0,-4,0.9,-0.1,6
Cc1noc(C)c1CSc1nnc2sc3ccccc3n12,-5,·,·,·,·,13,-5,·,-0.6,-2
S=C(NCc1ccccc1)Nc1ccc(Cl)cc1,1,-31,-57,22,i,-1,0,1.3,5.5,-9
Cc1nn2cc(-c3ccc(-c4ccccc4)cc3)nc2s1,4,·,·,·,·,-3,-10,·,-1.6,4
CCOc1cccc(NC(=O)CSc2nc(C)c3c(c2C#N)CCCC3)c1,1,·,·,·,·,-11,-1,·,5.8,1
CCOC(=O)C1CCCN(C2CC(=O)N(c3cccc(C)c3)C2=O)C1 (stereo not given),1,·,·,·,·,22,-4,·,-1.1,-11
COC(=O)c1ccc(NC(=O)CSc2nc3[nH]ncc3c(=O)[nH]2)cc1,·,5,2,-2.1,i,4,-9,0.1,1.3,-8
O=C1CCCc2ccccc2N1Cc1c(Cl)cccc1Cl,-3,·,·,·,·,0,-7,·,-2.4,-9
CNc1c([N+](=O)[O-])cnn1-c1ccc(C)cc1,-10,·,·,·,·,-1,-1,·,-1.5,-3
CC1=NN(Cc2ccccc2)C(=O)/C1=C\c1ccc(N(C)C)cc1,2,·,·,·,·,-5,-7,·,-7.8,-6
CCOc1ccccc1Nc1nnc(Cc2ccccc2Cl)c(=O)[nH]1,-4,·,·,·,·,6,-15,·,?,26
Cc1cccc(NC(=O)CCN2CCC(C(N)=O)CC2)c1,-3,20,12,4.4,i,27,-4,0.1,0.2,-6
Nc1ccc2nc(SCc3cccc(F)c3)sc2c1,·,-31*,-23*,-7.0*,i,-5,99*,2.6,1.4,1
O=C1C=C(c2ccccc2)C[C@H](c2cccs2)[C@H]1n1nnc([N+](=O)[O-])n1,52,·,·,·,·,0,-38,·,-0.3,49
Cc1cc[n+](CC(=O)c2ccc(NC(=O)c3ccccc3)cc2)c2ccccc12,30,·,·,·,·,-22,13,8.5,5.1,15
CC1CCc2nc(NC(=O)CSc3nc4ccccc4o3)sc2C1 (stereo not given),5,·,·,·,·,7,99*,·,-1.7,4
CCC(=O)Nc1ccc(C(=O)CSc2nnc(-c3ccc(O)cc3)n2CC2CCCO2)cc1OC (stereo not given),0,·,·,·,·,6,82*,·,0.8,-5
COc1cccc(/C=N/NC(=O)c2oc3nc(-c4ccccc4)cc(-c4ccco4)c3c2N)c1,-4,23,11,4.3,i,-4,-16,-6.4,-4.1,-7
Cc1c(Cl)cccc1NC(=S)N1CCN(C(=O)C2CCCO2)CC1 (stereo not given),-3,·,·,·,·,0,-7,·,3.4,-14
CC(C)CN1C(=O)c2ccccc2C1(O)Cc1ccccc1 (stereo not given),0,·,·,·,·,0,-7,·,2.0,4
O=C(NC1CCCC1)C(c1ccncc1)N(C(=O)c1csnn1)c1ccc(Cl)cc1 (stereo not given),0,0,-3,0.2,i,-5,-2,-0.5,-0.3,-1
O=C(Nc1ccnn1C1CCN(Cc2cc3ccccc3[nH]2)CC1)C1CCOC1 (stereo not given),-1,23,17,1.6,i,-1,-7,5.7,?,11
CCOC(=O)N1CCN(C(=O)c2ccc3[nH]c(C)c(C)c3c2)CC1,3,7,2,2.8,i,·,1,-1.9,·,·
CCCS(=O)(=O)NCCc1cc2cc(C)c(C)cc2[nH]c1=O,1,·,·,·,·,-7,-2,·,1.5,-9
O=C(NCC(c1ccco1)N1CCCC1)c1cc2cc(Cl)ccc2o1 (stereo not given),-14,-1,-5,-2.5,i,·,·,-0.5,·,·
Cc1ccc(S(=O)(=O)N(C)c2ccccc2C(=O)Nc2c(F)cccc2F)cc1,·,1,2,0.3,i,-4,0,0.4,-2.1,-3
NC(=NC1CCCCC1)c1ccc([N+](=O)[O-])cc1,-1,·,·,·,·,-1,-19,·,-0.1,2
Cc1cccc(N2CCN(Cc3cc(=O)n4ccsc4n3)CC2)c1C,-1,·,·,·,·,-3,2,·,-0.7,1
Cc1ccc(-n2nc3c(=O)n(C(C)C(=O)NCc4ccccc4Cl)nc(C)c3c2C)cc1 (stereo not given),8,-5,-7,-3.2,i,-6,·,-0.4,1.0,27
O=C(Nc1ccccc1C(=O)N/N=C/c1ccco1)c1ccc(Cl)cc1,-1,-4,-2,-0.1,i,5,17,-0.5,0.2,10
NCCc1ccc(O)c(O)c1,4,·,·,·,i,·,99*,-1.7&-0.3,5.4,-1
C/C(CC(=O)Nc1ccc2c(c1)OCCO2)=N\NC(=O)c1ccccn1,1,10,14,0.9,i,31,11,-1.5,2.3,-9
O=[N+]([O-])c1cc(S(=O)(=O)Nc2cccc(Cl)c2)ccc1N/N=C/c1ccc(N2CCOCC2)cc1,18,16,3,-2.3,i,3,-5,0.9,6.1,37
CCOC(=O)C1=C(COc2ccc(C)cc2)NC(=O)NC1c1cc(C)ccc1C (stereo not given),1,·,·,·,·,16,·,·,2.6,-14
COc1ccc(CSc2nc(C)cc(C)c2S(C)(=O)=O)cc1,·,-33,-36,-4.2,i,-6,5,-0.2,2.6,-8
Cc1onc(-c2ccccc2)c1CNS(=O)(=O)c1ccccc1[N+](=O)[O-],-2,-3,4,4.9,i,3,-7,·,-1.9,6
CCN(CC)S(=O)(=O)c1ccc(OCC2CCCCO2)c([N+](=O)[O-])c1 (stereo not given),-6,2,4,-0.8,i,-1,-21,9.6,1.5,7
CN1C(=O)C2ON(c3ccccc3)C(c3cccs3)C2C1=O (stereo not given),-3,·,·,·,·,1,-10,·,-1.3,-19
CCOC(CCn1ccc(O)c(Cc2ccc(Cl)cc2)c1=O)OCC,-3,13,13,4.0,i,-5,0,0.6,-2.6,-2
COc1ccc(-c2nc(CS(=O)(=O)CC(=O)NCc3cccc(OC)c3OC)c(C)o2)cc1,4,1,-16,-0.5,i,-3,0,8.7,0.1,-3
O=C1C(Cc2ccc(F)cc2)SC(=Nc2ccccc2)N1c1ccccc1 (stereo not given),0,·,·,·,·,6,-19,·,2.1,2
# Further records.
SMILES,Beta cell apopt,Ecoli rRNA inh,Ecoli rRNA inh OD600,Ecoli rRNA inh RFP,FGF22 binding,Calb FLC,ALR inh,MLL AF4-AF9 inh,RanGTP-Impb inh,T cruzi inh
CCS(=O)(=O)c1ccc(O)c(NC(=O)CCCC(=O)O)c1,·,·,·,·,i,6,-1,-0.7,4.6,-11
COc1ccc(-c2cc(C(F)(F)F)n3nc(C(=O)NCCCn4ccnc4)cc3n2)cc1,-1,·,·,·,·,13,0,·,6.1,7
Cc1ccc(C)c(Nc2ncnc(N)c2[N+](=O)[O-])c1,·,·,·,·,·,-1,3,·,0.6,5
O=C(NC1CCCCC1)c1cc([N+](=O)[O-])ccc1N1CCCC1,0,-2,11,-3.3,i,-13,0,-2.9,1.5,6
O=C1CCc2cc(NS(=O)(=O)c3ccc(Br)cc3)cc3c2N1CC3,7,2,0,-1.1,·,0,-1,-9.2,-2.9,-15
CCOc1cc(/C=C(\C#N)c2nc(-c3cccs3)c(NC(C)=O)s2)ccc1O,16,·,·,·,·,2,-22,·,-74,-9

# One compound at a time (already shown). Screens in order: Beta cell apopt | Ecoli rRNA inh | Ecoli rRNA inh OD600 | Ecoli rRNA inh RFP | FGF22 binding | Calb FLC | ALR inh | MLL AF4-AF9 inh | RanGTP-Impb inh | T cruzi inh
# `O=C1CCc2cc(NS(=O)(=O)c3ccc(Br)cc3)cc3c2N1CC3` is entered as 7 | 2 | 0 | -1.1 | · | 0 | -1 | -9.2 | -2.9 | -15
# `Cc1ccc(C)c(Nc2ncnc(N)c2[N+](=O)[O-])c1` is entered as · | · | · | · | · | -1 | 3 | · | 0.6 | 5
